Source: PubChem
KCNQ2 enhance – potentiators of rat KCNQ2 potassium channel. AID 2239. 310,000 compounds, 0.54% hits. CHO-K1 KCNQ2, FluxOR thallium flux fluorescence; hits give high values. B-score at 10 µM;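 active = fluorescence ratio B-score at least 3 SD of library B-scores, with initial fluorescence B-score within 3 SD, cut at about 5.3 in these data; same plate scores as AID 2156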;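 note: B-score of peak minus minimum over baseline fluorescence ratio after K+ and Tl+ stimulus; positive B-score means potentiation of KCNQ2 with more thallium influx and brighter signal; only the inactives scoring about 0 or higher are listed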
Target sequence (O88943 whole entry, looked up): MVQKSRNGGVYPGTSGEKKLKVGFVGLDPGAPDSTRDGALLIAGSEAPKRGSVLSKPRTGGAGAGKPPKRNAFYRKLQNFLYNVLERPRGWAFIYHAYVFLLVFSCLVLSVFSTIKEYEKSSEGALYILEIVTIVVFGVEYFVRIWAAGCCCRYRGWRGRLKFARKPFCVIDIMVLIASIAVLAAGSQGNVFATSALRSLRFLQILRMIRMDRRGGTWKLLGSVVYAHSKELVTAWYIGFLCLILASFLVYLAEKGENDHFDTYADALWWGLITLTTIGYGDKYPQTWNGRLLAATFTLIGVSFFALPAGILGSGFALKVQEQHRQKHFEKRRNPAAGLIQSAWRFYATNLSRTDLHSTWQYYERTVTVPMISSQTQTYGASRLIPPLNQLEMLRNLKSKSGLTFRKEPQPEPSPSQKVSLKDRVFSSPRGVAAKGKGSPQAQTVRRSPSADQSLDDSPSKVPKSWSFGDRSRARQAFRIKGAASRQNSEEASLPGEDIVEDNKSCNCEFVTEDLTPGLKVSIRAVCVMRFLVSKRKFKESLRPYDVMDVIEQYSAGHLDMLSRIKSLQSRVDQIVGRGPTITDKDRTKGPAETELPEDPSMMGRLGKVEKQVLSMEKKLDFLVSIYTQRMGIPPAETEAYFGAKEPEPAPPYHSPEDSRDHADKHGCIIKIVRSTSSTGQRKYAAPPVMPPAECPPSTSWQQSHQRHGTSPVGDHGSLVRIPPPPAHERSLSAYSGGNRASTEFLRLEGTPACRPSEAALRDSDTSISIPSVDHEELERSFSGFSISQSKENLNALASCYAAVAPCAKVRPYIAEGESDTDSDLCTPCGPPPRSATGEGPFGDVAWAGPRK
KCNQ2 enhance baseline – recorded beside KCNQ2 enhance, whose call it bears; B-score; compound at 10 µM; measured here: initial fluorescence intensity artifact check;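 brightness before thallium and not channel activity; 0 = typical well and far values either way flag optical interference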
Starred values were filed as active, the others as inactive.

SMILES | KCNQ2 enhance | KCNQ2 enhance baseline
COCCN1C(=O)/C(=C/c2cc3c(cc2Br)OCO3)NC1=S | 1.1 | -1.4
O=C(CCN1C(=O)c2ccccc2C1=O)N1CCC(c2ccccc2)C1 (stereo unspecified) | 0.15 | -1.2
O=C(CSc1nc2cc(Cl)ccc2o1)c1cccs1 | 0.27 | -0.11
O=C(OCC(CO)OC(CO)n1ccc(=O)[nH]c1=O)c1ccccc1 (stereo unspecified) | 0.37 | -2
CCN1CCCC1CNC(=O)Cn1nc(C)n2c(cc3cc(F)ccc32)c1=O (stereo unspecified) | 0.37 | 2.1
Nc1nnc(SCCCC(=O)c2ccccc2)s1 | 1.9 | 0.31
COC(=O)c1cc(S(=O)(=O)NCCN2CCOCC2)cn1C | 0.46 | 0.25
CCN(CC)C(=O)c1sc(NC(=O)c2ccc(OC)c([N+](=O)[O-])c2)c(C#N)c1C | 0.27 | -0.51
Cc1cc(NC(=O)CSc2nnc(-c3ccccc3)o2)no1 | 0.21 | 0.34
O=C1CCCc2nn(-c3ccccc3)c(-c3ccncc3)c21 | 0.87 | 0.06
Cc1ccccc1OCCCC(=O)Nc1ccc(N2CCOCC2)cc1 | 0.01 | 0.06
CCOc1ccc(-c2nc(CSCC(=O)NCCCN3CCCC3=O)c(C)o2)cc1 | 0.62 | 0.49
COc1ccc(OC)c(NC(=O)c2cc3ccccc3cc2OC)c1 | 0.01 | 0.06
COc1cc(NC(=O)c2cccc(Br)c2)nc(OC)n1 | 0.35 | 2.4
O=C(NCCc1ccccc1)C1CCN(C2CCN(C(=O)CC3=CCCCC3)CC2)CC1 | 0.96 | -4.1
O=C(NC(NC(=S)Nc1ccccc1Cl)C(Cl)(Cl)Cl)c1cccc(Cl)c1 (stereo unspecified) | 0.57 | -1.1
CCCC(=O)NC(=S)Nc1ccccc1C(F)(F)F | 1.8 | -1.6
Cc1cccc2sc(NC(=O)c3ccc(OCC4CCCO4)cc3)nc12 (stereo unspecified) | 0.53 | -1.8
COc1ccc(NC(=O)CS(=O)CC(=O)Nc2cccc3cccnc23)cc1 (stereo unspecified) | 3.4 | 3.2
CC1(C)CC(=O)C(C=Nc2ccc3cn[nH]c3c2)=C(O)C1 | 0.13 | -0.08
CN(C)CCNC(=O)c1c(NC(=O)c2ccccc2)sc2c1CCCC2 | 0.26 | 0.92
Cc1nc(Nc2cccc(C(C)O)c2)c2nnn(Cc3ccccc3F)c2n1 (stereo unspecified) | 1.6 | -0.52
CCS(=O)(=O)Nc1cccc(-c2cc(-c3ccccc3)c3cc(C)ccc3n2)c1 | 0.05 | 1.3
O=C(CSc1nnc(-c2ccc(F)cc2)c2ccccc12)NCC1CCCO1 (stereo unspecified) | 0.51 | 0.19
CCN(C(=O)CSc1nnc(C)n1Cc1ccccc1)C1CCS(=O)(=O)C1 (stereo unspecified) | 0.34 | 0.52
New compounds follow.
SMILES | KCNQ2 enhance | KCNQ2 enhance baseline
Cc1cc(-c2nn(-c3ccccc3F)cc2CN2CCC(C(N)=O)CC2)c(C)s1 | 0.52 | 0.6
O=C(O)c1ccccc1-c1ccccc1C(=O)NCc1ccco1 | 0.96 | -1.7
O=S(=O)(c1ccc(Cl)s1)N1CCc2ccccc2C1 | 0.94 | 2.6
CCOc1ccc(NC(=O)CN2CCN(CC(=O)Nc3ccc(Cl)c(C(F)(F)F)c3)CC2)cc1 | 1.3 | -0.21
O=C(CNC(=O)c1ccccc1)OCc1nc2ccccc2s1 | 0.1 | -0.15
CC(C)CS(=O)(=O)C1=NN2C(=N)/C(=C\c3ccc(OC(=O)c4ccco4)cc3)C(=O)N=C2S1 | 0.78 | 1.9
Cc1noc(/C=C/N(C)C)c1S(=O)(=O)N1CCC(C(=O)NC(C)(C)C)CC1 | 1.9 | -1.1
CC(C)(C)c1ccc(-n2ncc3c2CCCC3NC(=O)c2csnn2)cc1 (stereo unspecified) | 0.01 | 1.7
O=C(CSCc1ccccc1)Nc1cccc(C(=O)Nc2ccc(C(=O)O)cc2)c1 | 1.1 | 0.04
Cc1csc(=O)n1CCC(=O)OCC(=O)Nc1cc([N+](=O)[O-])ccc1Cl | 2.1 | 0.19
O=C1NC2(CCCCCC2)C(=O)N1Cc1ccccc1 | 5.6* | -0.84*
COc1ccc(-c2nn3c(C4CCCCC4)nnc3s2)cc1OC | 0.83 | -0.19
CCOc1ccc(-n2cc(C(=O)NCCOC)c3cc(OC)c(OC)cc3c2=O)cc1 | 1.5 | 0.92
O=C1C(Nc2ccc(O)cc2)=C/C(=N/S(=O)(=O)c2cccs2)c2ccccc21 | 0.89 | 1.1
COc1ccc(/C=C/C(=O)Nc2cccnc2Cl)cc1 | 0.67 | -0.82
CN(C)S(=O)(=O)c1ccc(C(=O)Nc2ccc(Cl)cc2)cc1 | 1.4 | 2.4
Cc1cccc(C)c1NC(=O)COC(=O)c1cccc2c1C(=O)c1ccccc1C2=O | 1.2 | -2.7
CC(C)(C)N(CC#CCC1(O)c2ccccc2-c2ccccc21)CCO | 0.41 | -0.19
Cc1cc(=O)c(C(=O)O)nn1-c1ccccc1Cl | 0.5 | -0.85
CC1(C)OC(=O)C(=NNc2ccccc2C(=O)O)C(=O)O1 | 1.6 | 0.51
CCN(CC)S(=O)(=O)c1cc(NC(=O)c2n[nH]c(=O)c3ccccc23)ccc1C | 1.8 | 1.8
C=CCNC(=S)NNC(=O)Cn1c(-c2ccccc2)cc(=O)n2ncnc12 | 1.1 | -0.04
O=C(CN1CCN(Cc2ccc(Cl)cc2)CC1)N/N=C/c1c[nH]c2ccccc12 | 0.03 | -0.5
Cc1ccc(N2C(=O)[C@@H]3C(C(=O)C(c4ccccc4)c4ccccc4)=NN[C@@H]3C2=O)cc1 | 0.66 | 2
Cc1c(Cl)c([N+](=O)[O-])nn1CC(=O)NCC1CCCO1 (stereo unspecified) | 0.16 | 1.1
Next part.
SMILES | KCNQ2 enhance | KCNQ2 enhance baseline
COCCSc1nnc(NC(=O)COC)s1 | 1.9 | -0.38
CC1(C)Cc2ccccc2C(=O)N1 | 0.14 | -0.65
Cc1nn(C)c(C(=O)NNC(=S)NCc2ccco2)c1Cl | 0.33 | 0.51
CN(CCCC1CCCC1)C(=O)CC1C(=O)NCCN1Cc1cccc(F)c1F (stereo unspecified) | 4 | -0.85
COc1ccc(-c2c(C#N)c(N)nc(Sc3ccc(Cl)cc3)c2C#N)cc1 | 0.11 | 0.44
O=S(=O)(Nc1ccc(Br)cc1)c1cccc2nonc12 | 0.1 | 1
COC(=O)C1=C(C(=O)OC)[C@@H]2N(C)c3ccc(OC)cc3[C@@]23C[C@@H](C(=O)OC)N(C(=O)c2ccc(Br)cc2)C3=N1 | 0.48 | 0.07
COc1ccc(-n2nc3c(c2NC(C)=O)CS(=O)(=O)C3)cc1 | 0.66 | -0.29
CCCc1ccc(S(=O)(=O)NCC2CCCN2CC)cc1 (stereo unspecified) | 0.16 | -0.61
CN1C(=O)C(C)(C)c2cc(S(=O)(=O)N3CCCC(C(=O)NCc4ccccc4Cl)C3)ccc21 (stereo unspecified) | 0.85 | 0.08
CCOC(=O)COc1ccc(/C=C2/SC(=Nc3ccccc3)N(Cc3cccnc3)C2=O)cc1OC | 0.68 | -0.01
O=C(Nc1cccc(F)c1)c1cccc2c1C(=O)N(C1CCCCC1)C2 | 0.13 | 1.4
CC(=O)N/C(=N/c1nc(C)cc(C)n1)Nc1ccc(C)cc1C | 0.03 | -1.4
O=C1SC(SCc2ccccc2Cl)=N/C1=C\c1ccc(C(=O)O)cc1 | 0.46 | 2.3
O=C(Nc1ccc(OC(F)(F)F)cc1)c1ccc2nccnc2c1 | 1.9 | 0.37
CC(=O)Nc1ccc2oc(-c3ccccc3)nc2c1 | 1.9 | -0.01
Oc1c(N=NC(=S)Nc2ccccc2F)c2ccccc2n1Cc1ccc(F)cc1 | 2.1 | 0.09
Cc1nc(SCC(=O)Nc2nnc(C(C)C)s2)n[nH]1 | 0.28 | 0.29
CCOC(=O)[C@@H]1[C@H]2COc3cc(OC)ccc3[C@H]2N2C(=O)N(c3ccc(F)cc3)C(=O)[C@]12C | 0.01 | 0.95
CCOC(=O)C1=C(C)NC(C)=C(C(=O)OCC)C1C(=O)O | 0.76 | -0.35
C=CCn1cccc(C(=O)Nc2ccc(OC)cc2OC)c1=O | 2.1 | -0.88
CCCC(=O)N1CCC(CCC(=O)NC2CC2)CC1 | 1.4 | 1.1
O=C1/C(=C/c2ccc([N+](=O)[O-])cc2)Oc2cc(O)ccc21 | 1.1 | -1.9
CC(=O)Nc1ccc(S(=O)(=O)NCc2nc(-c3ccccc3C)no2)cc1 | 0.03 | 0.83
C=C(C)C(=O)Nc1cccc(C2=NOC3(C2)C[C@@H](C(N)=O)N(C(=O)c2ccc(OC)cc2)C3)c1 (stereo partly specified) | 0.31 | -0.88

Already shown: an excerpt of the list.
SMILES | KCNQ2 enhance | KCNQ2 enhance baseline
CCCc1ccc(S(=O)(=O)NCC2CCCN2CC)cc1 (stereo unspecified) | 0.16 | -0.61
CN1C(=O)C(C)(C)c2cc(S(=O)(=O)N3CCCC(C(=O)NCc4ccccc4Cl)C3)ccc21 (stereo unspecified) | 0.85 | 0.08

Next section.
SMILES | KCNQ2 enhance | KCNQ2 enhance baseline
Cc1nnsc1C(=O)Nc1cccc(Cl)c1 | 0.79 | -0.23
Cc1ccc(CNC(=O)CCC(=O)Nc2nnc(C)s2)cc1 | 1.9 | 0.05
O=S(=O)(c1ccccc1)N1CCN(C(=S)Nc2ccccc2)CC1 | 0.09 | 0.63
Cc1ccc(-c2cn(-c3ccccc3)c(=S)[nH]2)cc1C | 0.74 | 0.7
CC#CCC(CC#CC)c1nc2ccccc2c(=O)n1N | 0.77 | 0.3
O=C(CSc1nc2ncccc2[nH]1)Nc1ccc2c(c1)OCO2 | 1.4 | 1.7
S=c1[nH]nc(-c2ccc3ccccc3n2)n1-c1ccc(Cl)cc1 | 0.36 | 0.23
CC(=O)c1c(C)[nH]c(C(=O)CSc2nnc(CN3CCCCCC3=O)n2-c2ccccn2)c1C | 1.5 | -0.38
Cc1cccc(OCC(=O)NS(=O)(=O)c2ccc(Br)cc2)c1 | 0.31 | 0.89
O=C(NCC1CCCO1)C(c1ccco1)N(Cc1ccc(F)cc1)C(=O)CN1C(=O)c2ccccc2S1(=O)=O (stereo unspecified) | 0.82 | -1.2
CCCNC(=O)Cn1cnc2sc(C(=O)Nc3ccc4c(c3)OCO4)c(C)c2c1=O | 0.38 | -0.14
CC(C)[C@H]1C(=O)Nc2ccccc2N1C(=O)N[C@@H](Cc1ccccc1)C(=O)N[C@@H](Cc1ccccc1)C(=O)O | 0.09 | -1.8
CC(C)(C)C(=O)COC(=O)c1cc(S(=O)(=O)N2CCCCC2)ccc1N1CCOCC1 | 1 | -1.6
O=C(O)C1CC=C(Cl)CC1C(=O)NCC1OCCc2ccccc21 (stereo unspecified) | 1.7 | -0.74
O=C(O)Cc1sc(NCc2ccco2)nc1-c1ccccc1 | 0.41 | -0.03
Cc1cc(S(=O)(=O)N2CCOCC2)ccc1F | 1.5 | -1.3
Cc1ccc(CN2C(=O)CSC2c2cccnc2)cc1 (stereo unspecified) | 2.2 | -0.98
O=C(N/N=C/c1ccncc1)c1cc2c(ccc3ccccc32)o1 | 1.4 | 0.11
CC(C)CCC(CCNCc1ccccn1)c1ccc(Cl)cc1 (stereo unspecified) | 0.09 | -0.98
COc1ccc(CCNC(=O)CCCc2ccccc2)cc1 | 0.67 | -2
COc1ccc(NC(=O)Cn2nnc3ccccc32)c([N+](=O)[O-])c1 | 0.3 | 0.23
NC(=O)c1nsc(C(=O)N(CC(=O)NC2CCCCC2)c2ccc(Cl)cc2)c1N | 1.1 | 0.08
Cc1cc(C)n2nc(SCC(=O)N/N=C/c3ccc(F)cc3)nc2n1 | 1.2 | -1.4
O=C1CN(C(=O)CNCc2ccccc2Cl)c2ccccc2N1 | 1.1 | -0.04
CCc1ccc(CNC(=O)C2CCN(S(=O)(=O)N3CCC(C)CC3)CC2)cc1 | 6.9* | 0.69*
Following part
SMILES | KCNQ2 enhance | KCNQ2 enhance baseline
COCCCNCCCOc1ccc(C)cc1Br | 0.06 | 1.7
CCC(C)C(NC(=O)c1ccccc1NC(=O)c1ccc(OC)cc1)C(=O)NCc1ccco1 (stereo unspecified) | 0.97 | 0.83
NC(=O)C1CCN(CC(=O)NCc2ccccc2)CC1 | 0.67 | -0.4
O=C1Nc2cc3c(cc2C1=O)sc1ccccc13 | 0.11 | -0.27
O=C1CCCN1c1ccc(S(=O)(=O)N2CCCCC2)cc1[N+](=O)[O-] | 0.85 | 0
COc1ccc(S(=O)(=O)NCCSc2ccc(C)cc2)cc1OC | 0.57 | -0.21
O=C(COC(=O)C1CCC1)Nc1ccc(OC(F)F)cc1 | 0.31 | 0.95
CCN(c1ccccc1)S(=O)(=O)c1ccc(F)c(C(=O)O)c1 | 1.7 | 0.01
COc1cccc(C(C2C(=O)CC(C)(C)CC2=O)C2C(=O)CC(C)(C)CC2=O)c1 | 1.4 | 1.1

Structures listed so far with two or more sulfur atoms:
SMILES | KCNQ2 enhance | KCNQ2 enhance baseline
O=C(CSc1nc2cc(Cl)ccc2o1)c1cccs1 | 0.27 | -0.11
Nc1nnc(SCCCC(=O)c2ccccc2)s1 | 1.9 | 0.31
CCN(C(=O)CSc1nnc(C)n1Cc1ccccc1)C1CCS(=O)(=O)C1 (stereo unspecified) | 0.34 | 0.52
O=S(=O)(c1ccc(Cl)s1)N1CCc2ccccc2C1 | 0.94 | 2.6
CC(C)CS(=O)(=O)C1=NN2C(=N)/C(=C\c3ccc(OC(=O)c4ccco4)cc3)C(=O)N=C2S1 | 0.78 | 1.9
O=C1C(Nc2ccc(O)cc2)=C/C(=N/S(=O)(=O)c2cccs2)c2ccccc21 | 0.89 | 1.1
COCCSc1nnc(NC(=O)COC)s1 | 1.9 | -0.38
O=C1SC(SCc2ccccc2Cl)=N/C1=C\c1ccc(C(=O)O)cc1 | 0.46 | 2.3
Cc1nc(SCC(=O)Nc2nnc(C(C)C)s2)n[nH]1 | 0.28 | 0.29
O=S(=O)(c1ccccc1)N1CCN(C(=S)Nc2ccccc2)CC1 | 0.09 | 0.63
COc1ccc(S(=O)(=O)NCCSc2ccc(C)cc2)cc1OC | 0.57 | -0.21

An excerpt; rates above refer to the full screens.
